LANA-nucl inh – inhibitors of KSHV LANA binding to nucleosomes. FITC-LANA1-23 / chicken nucleosome fluorescence polarization; hits give low values. z-score (test concentration not listed). 51,000 tested, 0.3% active;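 active = both repeat wells score below -2 in polarization z-score versus plate sample wells, excluding overly bright wells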;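 also: 100 nL library stock added to about 30 µL; numbers are from one replicate; some results filed as inactive read as strong as hits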
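Test system: purified chicken nucleosomes with FITC-labelled LANA N-terminal peptide (1-23); Input: 240 nM purified chicken nucleosomes (480 nM peptide binding sites), final; Medium: TEN-BT buffer, pH 7.5; Timing: 10–45 min, room temperature; Technique: fluorescence polarization, 480 nm excitation, 535 nm parallel and perpendicular emission; Replication: duplicates.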
BasE inh – inhibitors of Acinetobacter baumannii siderophore enzyme BasE | purified BasE, fluorescence polarization binding displacement | inhibition, % (concentration not given with the values) | 84,000 tested, 0.1% active | AID 485350;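 active = both replicates above 25% with normal brightness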;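 also: 0% = negative plate control signal and 100% = positive plate control signal; stock transfer was 100 nL into about 30 µL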
An asterisk follows results filed as active; nt = not tested or not shown; & = joins results of further samples.

SMILES	BasE inh	LANA-nucl inh
CSc1c(C#N)c(-c2cc(C(C)(C)C)oc2C)nn1-c1ccccc1	1.0	nt
CCc1ccc2c(CC(=O)Nc3cccc(-c4nnc5n4CCCCC5)c3)coc2c1	-2.9	nt
CC1CCC(NC(=O)c2cc(S(=O)(=O)N3CCCCC3)c[nH]2)CC1 (stereo not given)	-2.3	2.5
Cc1csc(-c2coc3cc(O)cc(C)c3c2=O)n1	-1.1	-0.13
CN(C(=O)CSc1nncn1-c1ccccc1)c1ccccc1	1.9	nt
CC1=N/C(=C/c2cc3ccccc3nc2Sc2ccc(C)cc2)C(=O)O1	-16	nt
CN(C)N=C1c2cc(S(=O)(=O)N(C)C)ccc2-c2ccc(S(=O)(=O)N(C)C)cc21	0.2	-0.34
CC/C=N/NC(=O)c1cccc(F)c1	1.1	nt
N#Cc1c(CSc2ccccc2N)cc(=O)n2c1sc1ccccc12	-9.7	nt
Nc1sc2c(c1C(=O)NCc1ccco1)CCCC2	-3.0	0.37
OCCNc1nc2ccccc2s1	0.4	0.42
CNC(=O)C1c2ccccc2Oc2ccccc21	-1.2	-0.04
CCOC(=O)c1cnc(SCC(=O)c2ccccc2)nc1N	0.2	1.4
COc1ccc2nc(SC)[nH]c2c1	2.8	-0.46
COc1ccc2[nH]c3c(=O)n(-c4ccc(C)c(C)c4)c(O)nc3c2c1	1.7	-1
CCC(C)n1nccc1NC(=O)COc1ccccc1 (stereo not given)	0.4	0.57
Cc1cc(-c2noc(-c3snnc3C)n2)no1	2.1	nt
CCCCn1c(=O)[nH]c2ccccc2c1=O	-3.0	nt
C/C(=N\O)C(=O)c1ccc(C)cc1	0.6	nt
Cc1cccc(Cc2cnc(N3C(=N)SC(C)C3=O)s2)c1 (stereo not given)	2.1	-0.23
Cc1nc(N)nc(C)c1CCC(=O)O	-4.2	2.8
COC(=O)CCN1C(=O)/C(=C\c2ccc(O)c(OC)c2)SC1=S	-5.1	0.69
Cc1cc(S(=O)(=O)NCc2ccccc2)ccc1OCC(=O)N1CCOCC1	-2.6	-0.025
COCc1c(C(=O)NCC2COc3ccccc3O2)oc2ccccc12 (stereo not given)	0.0	nt
CC(C)OC(=O)c1cc2c(ccn2C)n1CC(=O)N1CCN(c2ccccc2F)CC1	0.0	0.068
COc1ccc(CN(C(=O)c2ccc(CN3CCOCC3)o2)C(C(=O)NCC2CCCO2)c2ccc(F)cc2)cc1 (stereo not given)	0.0	0.0065
O=C1CC(=O)CC(c2c(F)cccc2Cl)C1	nt	-1.3
COc1ccc(-c2cc(C3CC3)c(C#N)c(N)c2C#N)cc1	0.9	nt
Cc1cc(-c2onc(C)c2/C(N)=N/O)no1	0.3	0.45
Nc1nc(=O)n([C@@H]2CS[C@H](CO)O2)cc1F	nt	0.45
OC(Cc1nc2ccccc2o1)c1ccccc1 (stereo not given)	-1.6	1.3
O=CN/N=C/c1ccc(Cl)cc1	2.3	nt
CCCCc1ccc(NC(=O)N=S2CCN(c3ncc(C(F)(F)F)cc3Cl)CC2)cc1	4.1	nt
Cc1csc(=O)n1CC(=O)OCC(=O)NC1(C#N)CCCCC1	-1.4	nt
N#Cc1ccccc1NC(=O)COc1ccc2ccc(=O)oc2c1	0.6	nt
COCc1cc(Cl)nc2cc(NC(=O)C(F)(F)F)c(C)cc12	nt	-1.3
Cc1nc(SCc2ccccc2C#N)n(C2CCCC2)c1C	0.1	nt
Cc1cccc(C)c1NC1=NCCCCC1	1.6	nt
COc1ccc(C(=O)CN2Cc3ccccc3C2=N)cc1OC	-7.7	nt
C=CC[C@@H]1Cc2ccccc2[C@H](CC=C)N1	-2.5	3.1
O=C1CC(CSc2nnnn2-c2ccccc2)=NN1c1ccccc1	2.2	0.013
COc1ccccc1NS(=O)(=O)c1ccc2oc(Nc3ccc(S(=O)(=O)N4CCCCC4)cc3)nc2c1	1.2	nt
CC(C)(C)C(=O)NCC(c1ccco1)N1CCN(c2ccc(F)cc2)CC1 (stereo not given)	0.2	0.29
CCOc1ccc(-n2c(N)c(C(=O)NCc3cccnc3)sc2=S)cc1	4.7	-0.42
O=S1(=O)CCN(C(CCO)c2cccc(C(F)(F)F)c2)CC1 (stereo not given)	nt	0.41
COC(=O)c1sccc1NC=C(C#N)C#N	-3.5	1.1
Cc1ccc(S(=O)(=O)Nc2cccc(C(=O)N3CCCCC3)c2)cc1	-1.6	1.2
CC(=O)N1c2c(ccc3ccccc23)C(C)=CC1(C)C	1.7	nt
Clc1ccc(-c2nc(N3CCN(Cc4ccc5c(c4)OCO5)CC3)c3ccccc3n2)cc1	1.2	0.012
CCc1ccc(NS(=O)(=O)c2ccc3[nH]cc(C(=O)N(CC)CC)c(=O)c3c2)cc1	-3.8	0.049

Following part
SMILES	BasE inh	LANA-nucl inh
COC(=O)/C=c1\sc2ncnn2c1=O	-0.7	nt
N#Cc1cccc(NC(=O)CN2CCc3ccccc32)c1	1.9	nt
COc1ccc(SS(=O)(=O)c2ccc(OC)c(NC(C)=O)c2)cc1NC(C)=O	-0.3	nt
CC1(C)CC(=O)C2=C(C1)c1c(ccc3ncccc13)NC2C1CC=CCC1 (stereo not given)	3.2	nt
COC(=O)c1cc(/C=N/NC(N)=O)cn1C	0.5	-1
COc1cccc(OCCSc2nc(C(C)C)cc(=O)[nH]2)c1	nt	0.41
CCCCn1c(CCC(=O)OCC(=O)Nc2ccc(OC)cc2)nc2cc(S(=O)(=O)N3CCOCC3)ccc21	2.4	nt
O=C1c2cccc3cccc(c23)N1c1ccccc1	-0.2	0.81
CCCCN(C(=O)CC1CCCC1)c1c(N)n(Cc2ccccc2)c(=O)[nH]c1=O	1.6	nt
CC(C)C1CCC(C(=O)N[C@@H](Cc2ccccc2)C(=O)O)CC1 (stereo not given in full)	1.6	-0.073&0.56
Cc1cnc(C(=O)OCc2cc(Cl)c3c(c2)OCCO3)cn1	0.6	nt
Cc1ccc(C(=O)N2CCCN(c3ccc(C(F)(F)F)cn3)CC2)cc1C	nt	-1.2
Cc1ccc(C)n1/N=C1\NC(=O)CS1	1.1	0.031
CC(C)Cn1c(N2CCN(C(=O)c3sc4ccccc4c3Cl)CC2)nc2ccccc21	-0.4	-0.26
Nc1cccc(-c2csnn2)c1	1.4	0.12
O=C(CN(CC(=O)N1CCOCC1)S(=O)(=O)c1ccc2ccccc2c1)N1CCOCC1	-1.0	nt
CN(Cc1ccc(C(F)(F)F)cc1)c1ccc(S(=O)(=O)N2CCCC2)cn1	0.1	nt
CC(=O)Nc1ccc(OC(=O)c2ccco2)cc1	1.8	-0.34
O=C1CCc2cc(S(=O)(=O)Nc3ccccc3)cc3c2N1CCC3	0.7	0.56
NCc1ccccc1-n1ccnc1	3.1	1.6
CC1CN(S(=O)(=O)c2cc(C(=O)N(C)Cc3cccs3)ccc2Cl)CC(C)O1 (stereo not given)	-4.2	nt
COc1ccc(SCc2nc3ccccc3o2)cc1	-1.4	nt
CCCCNC(=O)c1cc(=O)[nH]c2ccccc12	1.4	nt
NS(=O)(=O)c1ccc(CCn2c(=S)[nH]c3ccccc3c2=O)cc1	1.9	nt
C=C(C)CSc1nc2ccc(Br)cc2c(=O)n1CC(C)O (stereo not given)	-0.1	nt
CCc1nc(NCCc2ccccc2)c(C#N)c2c1CCCC2	2.7	0.092
Clc1ccccc1/C=N/c1c(-c2ccco2)nc2ccccn12	1.9	nt
O=C(O)C1CC=CCC1C(=O)N1CC=C(c2ccccc2)CC1 (stereo not given)	3.4	-0.22
CCc1ccc(NC(=O)NC(C)(C)C)cc1	0.4	nt
CCOc1cc(/C=N/O)ccc1OCc1cccc(F)c1	3.5	0.025

The list goes on (two carried over from the part before).
SMILES	BasE inh	LANA-nucl inh
CCc1ccc(NC(=O)NC(C)(C)C)cc1	0.4	nt
CCOc1cc(/C=N/O)ccc1OCc1cccc(F)c1	3.5	0.025
Cc1cc(C(=O)NN)nn1C	3.4	nt
Cc1c2c(=O)n(-c3ccccc3)[nH]c2cc(=O)n1Cc1ccccc1	4.4	0.33
Cc1cc(C)nc(SCC(=O)OCN2C(=O)c3ccccc3C2=O)n1	1.8	0.82
CCCc1cc2c(cc1N)OCO2	-0.9	-0.18
CCCCN1C(=O)C(O)(c2nnc(-c3ccccc3)o2)c2ccccc21 (stereo not given)	-2.6	nt
Cc1ccc(C(=O)COC(=O)C2CCC2)cc1	1.1	nt
COC(=O)c1ccccc1NC(=O)c1cc[n+]([O-])cc1	-0.3	-0.42
COc1ccc(-c2nn(-c3ccccc3)cc2CSC(=N)N)cc1OC	-10	-0.24
CC(c1ccco1)N(C(=O)c1cccc(S(=O)(=O)N(C)C)c1)c1ccccn1 (stereo not given)	2.4	nt
Cc1c(F)cccc1NS(=O)(=O)c1cc2c3c(c1)c(C)cc(=O)n3CCC2	0.3	-0.025

Already shown: entries from further up.
SMILES	BasE inh	LANA-nucl inh
Cc1cc(C(=O)NN)nn1C	3.4	nt
Cc1c2c(=O)n(-c3ccccc3)[nH]c2cc(=O)n1Cc1ccccc1	4.4	0.33
Cc1cc(C)nc(SCC(=O)OCN2C(=O)c3ccccc3C2=O)n1	1.8	0.82
CCCc1cc2c(cc1N)OCO2	-0.9	-0.18
CCCCN1C(=O)C(O)(c2nnc(-c3ccccc3)o2)c2ccccc21 (stereo not given)	-2.6	nt
Cc1ccc(C(=O)COC(=O)C2CCC2)cc1	1.1	nt
COC(=O)c1ccccc1NC(=O)c1cc[n+]([O-])cc1	-0.3	-0.42

New compounds follow
SMILES	BasE inh	LANA-nucl inh
O=C1CSC(=O)N1CCN1C(=O)S/C(=C\c2ccccc2O)C1=O	-2.1	-0.41
O=C(N/N=C/c1cccnc1)c1ccccc1	-0.2	-0.74
CCn1c(SC/C(O)=C(\C#N)C(=O)NCc2ccccc2)nnc1-c1cccs1	-2.5	nt
O=C(Nc1ccccc1)c1cccnc1NCCc1ccccc1	-1.5	0.16
O=C(Cn1nnc(-c2cccc(C(F)(F)F)c2)n1)N(C1CCCC1)C1CCS(=O)(=O)C1 (stereo not given)	1.9	nt
O=C(Nc1ccc(NC(=O)C2CCCCC2)nc1)C1CC1	0.0	0.11
CC(=O)N/N=C/c1cn(-c2ccccc2)nc1-c1cccs1	-3.7	nt
Cc1c(C(=O)N2CCN(S(=O)(=O)/C=C/c3ccccc3)CC2)oc2ccc(Cl)cc12	-1.8	nt
CC(C)(C)NCC(O)c1ccc(O)c(CO)c1 (stereo not given)	-2.2&4.8	-0.22&1.2&0.22&0.3&-0.086
COc1ccc(C2=C/C(=C/c3ccccc3)C(=O)O2)cc1	-2.8	nt
N#CCSc1ncnc2sccc12	-7.6	nt
CCN=c1scc(-c2ccccc2)n1/N=C/c1ccccc1O	1.2	nt
CCCn1c(=O)n(CC#N)c(=O)c2c1nc(C(F)(F)F)n2CCOC	-0.5	nt
Cc1ccc2nc(Sc3ccccc3)c(/C=C3\SC(=S)N(C)C3=O)c(=O)n2c1	9.3	nt
CC(C)(C)c1nocc1C(=O)O/N=C(\N)c1ccccn1	-1.3	0.4
COc1cc(C)ccc1OCC(=O)NC(C)C	1.2	nt
O=C(NCCc1ccccc1)NCCN1CCN(c2ccccc2)CC1	-0.8	-0.065
CC(=O)Nc1ccc(Nc2cc(Cl)c(S(=O)(=O)C(F)(F)F)cc2S(=O)(=O)C(F)(F)F)cc1	0.3	nt
O=C(O)c1c(NC(=O)C2CCCC2)sc2c1CCC2	3.3	nt
CC(=O)N1CCc2cc(S(=O)(=O)C(C)CC(=O)N(C)c3ccc(C)cc3)ccc21 (stereo not given)	-2.7	-0.25
Cc1ccc(CN(Cc2ccco2)C(=S)Nc2ccccc2C)cc1	0.4	0.52
COc1cc(/C=C(\C#N)C(=O)OC(C)C)ccc1O	-1.7	nt
N#C/C(=C\C=C\c1ccccc1)c1cccc(C(F)(F)F)c1	2.4	nt
O=C(COC(=O)c1ccc2c(c1)OCCO2)Nc1ccc(N2CCOCC2)cc1	-1.3	nt
CC(C)C(=O)Nc1c(C(N)=O)oc2ccccc12	1.9	-1.6
COC(=O)c1ccc(-n2cccn2)cc1	1.4	-0.61
CSc1sc(C(=O)O)c2c1C(=O)CC(C)(C)C2	1.4	0.06
N/C(CN1CCCC1=O)=N\O	1.1	-0.33
CCN(CC)S(=O)(=O)c1cccc(C(=O)N[C@H](C(=O)Nc2ccc3c(c2)OCCO3)C(C)C)c1	-1.6	nt
O=C1c2ccccc2C(=O)N2CC3(c4ccccc4)CN1CC(c1ccccc1)(C2)C3=O	-0.9	-0.18
O=C(Nc1ccc(S(=O)(=O)N2CCCCC2)cc1)c1ccccn1	-0.5	nt
CC(=O)N(c1ccc2oc(=O)sc2c1)S(=O)(=O)c1ccc(C)cc1	0.2	-0.28
CC(=O)N1c2ccccc2C(=O)C1N1CCN(c2cc(C)ccc2C)CC1 (stereo not given)	-0.2	nt
O=C(Cn1c(C(=O)NCC2CCCO2)cc2sccc21)c1ccccc1 (stereo not given)	-0.2	-0.38

Source: PubChem (ICCB-Longwood Screening Facility, Harvard Medical School)

Only part of the results is shown; rates above refer to the full screens.
